Source: PubChem BioAssay
LASV entry inh: qHTS for Inhibitors of binding or entry into cells for Lassa Virus. AID 540256, 2011. hit rate 1.2% among 300,000. Lassa virus pseudotype entry inhibition, cell reporter; control for the full effect not named in the record. Potency, µM (top dose mostly 37.9 µM), for the others: at the highest dose activity change, negative = inhibition, hits mostly inhibitors; active means well fitted inhibition curve with a large enough effect; inconclusive means small, poorly fitted or top-dose-only effect, or effect the other way; inactive means flat fitted curve, though single readings scatter; tested in HEK293 cells; also: % is scaled to controls: 0 for no effect and ±100 for the full control effect; nearly all actives have a fitted effect of over 50% in size; luciferase read-out
2A StopGo: High Throughput Screening for Foot and Mouth Disease Virus Antivirals. human cells with a luciferase reporter of 2A StopGo recoding; control for the full effect not named in the record. Potency, µM (titrated, usually from 57.9 µM), for inactives: at the highest dose signal change, negative = less light. hit rate 1.2% among 410,000. AID 1159524, 2015; active = well fitted falling curve with a large enough effect; inconclusive = small, poorly fitted or top-dose-only effect; inactive = no such curve, though single readings can be large or run the other way; tested in HEK293T cells; also: % is scaled to controls: 0 for no effect and ±100 for the full control effect; nearly all actives have a fitted effect of over 45% in size; luciferase light after 4 h
Marburg entry inh: qHTS for inhibitors of binding or entry into cells for Marburg Virus; hit rate 1.8% among 300,000; Marburg virus pseudotyped entry inhibition, cell reporter; control for the full effect not named in the record; about a third of the inactives were read at about 46 µM; Potency, µM (series often up to 37.8 µM), for inactives: at the top dose activity change, negative = inhibition, actives largely listed as inhibitors; active = well fitted inhibition curve with a large enough effect; inconclusive = small, poorly fitted or top-dose-only effect, or effect the other way; inactive = flat fitted curve, though single readings scatter; tested in HEK293 cells; about a fifth of its hits are not listed in these tables; also: % is scaled to controls: 0 for no effect and ±100 for the full control effect; luciferase read-out
NS1 inh: qHTS Assay for Inhibitors of Influenza NS1 Protein Function. S. cerevisiae slowed by influenza A NS1, growth recovery by OD600. Potency, µM (series often up to 46.1 µM), inactives show top-dose activity, positive = more growth. hit rate 0.4% among 270,000. AID 2326, 2010; active means well fitted rising curve with a large enough effect; inconclusive means small, poorly fitted or top-dose-only effect; inactive means no such curve, though single readings can be large or run the other way; also: nearly all actives have a fitted effect of over 50% in size
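In this qHTS, NS1 from influenza A is expressed in budding yeast, where it slows growth. Cells are switched from glucose to 2% galactose medium (pH 6.0, -URA), treated with compound, and growth recovery is read at OD600.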
RE007 growth inh: qHTS Assay for Inhibitors of the HIV-1 protein Vpr | Potency, µM (series often up to 92.2 µM), for the others: at the top dose activity change, negative = less growth | S. pombe RE007 Vpr strain, BacTiter-Glo ATP luminescence, 24 h; control for the full effect not named in the record | hit rate 0.21% among 360,000; active = well fitted falling curve with a large enough effect; inconclusive = small, poorly fitted or top-dose-only effect; inactive = no such curve, though single readings can be large or run the other way;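 also: % is scaled to controls: 0 for no effect and ±100 for the full control effect; nearly all actives have a fitted effect of over 50% in size; the assay follows cell death caused by Vpr and the record does not say whether a fall means rescue or toxicity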
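Fission yeast RE007 carrying one integrated HIV-1 vpr copy, seeded at OD 0.01 in PMG+AL medium with 23 nL pinned compound. Grown 24 h at 30 degrees; viability read by BacTiter-Glo luminescence after 5 min.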
Cruzain inh Det: qHTS Assay for Promiscuous and Specific Inhibitors of Cruzain (with detergent). Cruzipain (Trypanosoma cruzi), P25779. purified cruzain, Z-FR-AMC fluorescence, 0.01% Triton. Potency, µM, for the others: max response, negative = inhibition, hits mostly inhibitors. hit rate 0.43% among 200,000. AID 1478, 2009;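 also: plate controls were neutral wells for no effect and buffer without enzyme for full effect; nearly all actives have a fitted effect of over 40% in size; top concentration of the series not given in the record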
Target sequence (P25779 123-467 limits assumed): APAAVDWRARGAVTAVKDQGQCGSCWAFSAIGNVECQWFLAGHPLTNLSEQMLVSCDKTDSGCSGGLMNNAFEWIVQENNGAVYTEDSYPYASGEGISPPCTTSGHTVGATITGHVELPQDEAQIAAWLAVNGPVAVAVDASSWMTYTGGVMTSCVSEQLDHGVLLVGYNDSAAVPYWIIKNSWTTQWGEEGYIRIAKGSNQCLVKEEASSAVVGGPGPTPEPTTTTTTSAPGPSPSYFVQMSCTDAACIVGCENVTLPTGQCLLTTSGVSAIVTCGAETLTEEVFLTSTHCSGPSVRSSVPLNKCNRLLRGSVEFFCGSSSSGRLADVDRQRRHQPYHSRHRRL
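15 min RT preincubation of 1.5 nM cruzain with compound, then 2 uM Z-FR-AMC added; kinetic AMC fluorescence, 60 s delta. Triton X-100 0.01%, pH 5.5.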
Cruzain noTriton: qHTS Assay for Promiscuous and Specific Inhibitors of Cruzain (without detergent) | Potency, µM, without a hit: max response, negative = inhibition, hits mostly inhibitors | Cruzipain (Trypanosoma cruzi), P25779 | purified cruzain, Z-FR-AMC fluorescence, no detergent | hit rate 2.3% among 200,000;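 also: plate controls were enzyme without inhibitor for no effect and buffer without enzyme for full effect; nearly all actives have a fitted effect of over 40% in size; top concentration of the series not given in the record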
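Detergent-free condition (0.00005% Triton X-100) in acetate buffer pH 5.5 with DTT. 1.5 nM enzyme and compound were pre-mixed 15 min, then 2 uM Z-FR-AMC substrate added; reaction progress from fluorescence change between first and third reads (60 s).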
SARS PLpro yeast: qHTS of Yeast-based Assay for SARS-CoV PLP; Potency, µM (highest dose often 32.9 µM), for inactives: at the highest dose activity, positive = growth rescue; S. cerevisiae expressing SARS-CoV PLpro, growth rescue; control for the full effect not named in the record; hit rate 0.19% among 330,000; active means well fitted rising curve with a large enough effect; inconclusive means small, poorly fitted or top-dose-only effect; inactive means no such curve, though single readings can be large or run the other way; also: 0% is about no effect; nearly all actives have a fitted effect of over 55% in size; growth read by luminescence after 48 h
Starred values were filed as active, the others as inactive; ? = inconclusive; / = no result given; & = joins results of further samples; [ ] = dose if it differs, or a comment. Unless noted, calls follow the shape of the dose curve; as a rule, active = well fitted curve in the direction sought with a large enough effect; inconclusive = small, poorly fitted or top-dose-only effect, or another doubt; inactive = no such curve, though single readings can be large; an effect the other way counts as inactive or inconclusive. Potency is read from the fitted curve at half-maximal effect.

SMILES	LASV entry inh	2A StopGo	Marburg entry inh	NS1 inh	RE007 growth inh	Cruzain inh Det	Cruzain noTriton	SARS PLpro yeast
CCC(C(=O)OCC(=O)Nc1ccccc1-c1ccccc1)c1ccccc1 (stereo not given)	-22%	-12%	0%	-61%	36%	-7.3%	2%	-31%
Cc1ccc(/C=C/C(=O)c2c(C)nc3ccccn23)cc1	-29%	-10%	?	-90%	-4%	-9.3%	?	-11%
COc1ccc(NC(=O)C2CCOC(C)(C)C2)cc1 (stereo not given)	0%	-1%	?	0%	4%	/	/	1%
CCC(C)[C@H](NC(=O)Nc1cccc(OC)c1)C(=O)OC (stereo not given in full)	4%	10%	?	2%	-11%	2.5%	8%	-1%
COc1ccc(-c2oc3ccccc3c2C(=O)Oc2ccccc2)cc1	/	11%	/	4%	11%	/	/	2%
CCOC(=O)c1ccccc1NC(=O)Cn1cnc2c(cnn2-c2ccc(OC)cc2)c1=O	-29%	-1%	5%	0%	-3%	/	/	/
CN(C)S(=O)(=O)c1ccc(C(=O)Nc2cc(=O)n(C)c(=O)n2C)cc1	-2%	-10%	-4%	14%	23%	-4.5%	-12%	24%
CCOc1ccc(S(=O)(=O)Nc2ccccc2C(=O)N2CCCC2)cc1	7%	8%	-10%[46.1 µM]	4%	0%	/	/	0%
CCOC(=O)c1cc(-c2ccccc2)n(-c2cccc(C(=O)Nc3cc(OC)cc(OC)c3)c2)c1C	6%[46.1 µM]	-8%	/	/	/	0.2%	-4%	/
N#Cc1ccc(OCC(=O)OCC(=O)NC2CC2)cc1	4%	-24%	23%	/	-22%	/	/	-6%
Cc1ccc(C)c(Nc2c([N+](=O)[O-])cc(C(=O)N3CC(=O)Nc4ccccc43)cc2[N+](=O)[O-])c1	?	?	?	?	-24%	-4.2%	-6%	-1%
COc1ccc(-c2c[n+](CC(=O)c3ccccc3)c3n2CCCCC3)cc1	/	-26%	/	0%	-8%	/	/	-1%
CC(=O)Nc1ccc2c(c1)C(=O)N(c1cccc(C)c1)C2=O	1%	7%	4%[46.1 µM]	?	10%	/	/	-1%
CCCS(=O)(=O)N1CCCC(C(=O)c2cccc(Cl)c2)C1 (stereo not given)	7%	-8%	22%[46.1 µM]	-4%	13%	/	/	1%
COc1ccc(Cl)cc1NC(=O)CN(C)C(=O)Cn1c(=O)oc2ccccc21	0%	-3%	-2%	/	1%	/	/	-3%
CCC1(CC)Cc2ccccc2-c2nc(CCl)[nH]c(=O)c21	/	-34%	/	18%	0%	/	/	0%
O=c1/c(=C/c2ccco2)sc2nc(-c3ccccc3Br)nn12	-7%	-3%	-3%&-3%[46.1 µM]	-52%	3%	-9.7%	-18%	-24%
S=c1nc(-c2ccc(Br)cc2)[nH]c2ccccc12	/	-4%	/	7%	-4%	/	/	2%
Cc1cccc(C)c1-n1c(C)nn(Cc2ccc([N+](=O)[O-])cc2)c1=O	2%	-12%	2%[46.1 µM]	/	-14%	/	/	-2%
CCOC(=O)Cc1c(C)nc2c(-c3cccc(Br)c3)cnn2c1C	?	-16%	27%	-5%	21%	-9.2%	?	14%
CCn1cc(C(=O)N2CCN(C(=O)c3ccco3)CC2)c2cc(OC)c(OC)cc2c1=O	12%	-20%	-1%	-1%	-3%	-1.4%	3%	0%
Cc1cc(C)c(-c2cc(NC(=O)COC(=O)c3ccc(CO)cc3)n(-c3ccccc3)n2)cc1C	6%	-12%	-23%	11µM*	16%	-6.0%	21%	0%
Cn1c(=O)c2c(ncn2CC(O)CNc2ccc(Br)cc2)n(C)c1=O (stereo not given)	-3%	?	?	2%	-6%	-0.1%	7%	0%
CCC(C(=O)N(C)Cc1ccccc1)n1nc(C)c2sc3ccccc3c2c1=O (stereo not given)	2%[46.1 µM]	-20%	3%[46.1 µM]	/	/	-18%	?	/
CC(=O)c1cnc(-c2ccccc2Cl)s1	/	35%[activator]	/	-1%	?	/	/	0%
CCc1cccc(C)c1NC(=O)c1cc(S(=O)(=O)N2CCC3(CC2)OCCO3)ccc1F	-3%[46.1 µM]	-25%	/	/	/	-0.8%	10%	/
CCC(=O)N1CCN(C(=O)CC)C1c1ccccc1	1%	-2%	21%	-5%	16%	5.9%	-11%	21%
Cc1cc(C)n2cc(CSC3=NCCS3)nc2n1	-11%	3%	25%	-3%	-7%	-7.4%	-22%	-6%
Cc1ccc2nc(-c3cc(NC(=O)COc4ccc(C)c(C)c4)ccc3Cl)oc2c1	-1%[46.1 µM]	40%[activator]	14%[46.1 µM]	/	/	-1.4%	-22%	/
Cc1ccc(NC(=O)Cn2nnc(C(=O)NCCc3ccccc3)c2N)cc1Cl	-24%&-22%[46.1 µM]	-7%&-6%	16%&16%[46.1 µM]	-4%	2%	-3.8%	?	3%
Cc1ccc(Nc2nc(N)nc(CN3CCN(c4ccccc4F)CC3)n2)cc1	?	?	?	?	5%	-5.8%	-3%	7%
CS(=O)(=O)N1CCN(CC2CC3C=CC2C3)CC1 (stereo not given)	-6%	-10%	10%	3%	-10%	8.5%	-7%	2%
O=C(NCc1ccco1)c1cc(S(=O)(=O)N2CCCC2)ccc1Cl	/	2%	/	1%	12%	/	/	-2%
O=C(Nc1ccc(CN2CCOCC2)cc1)c1ccc(Br)cc1	/	-5%	/	13%	-7%	/	/	5%
CC1(C)Cc2c(C#N)c(NCCN3CCOCC3)nc(-c3ccco3)c2CO1	-21%	-2%	-5%	10%	-7%	-7.7%	3%	-1%
COc1ccccc1NC(=O)N1CCc2c([nH]c3ccccc23)C1C(F)(F)F (stereo not given)	-25%	?	-17%	-6%	-2%	/	/	-2%
C=CCc1ccccc1OCC(O)CN(C(C)C)C(C)C (stereo not given)	?	-15%	6.3µM*	-4%	-1%	-4.0%	9%	-2%
Cc1ccc(N2CC(C(=O)OCC(=O)c3ccc([N+](=O)[O-])cc3)CC2=O)cc1 (stereo not given)	8%	-4%	-2%[46.1 µM]	-14%	-16%	/	/	0%
COc1ccc(N(Cc2cccs2)C(=O)Nc2ccccc2)cc1	-14%[46.1 µM]	-15%	?	/	/	-6.0%	-3%	/
Cc1ccc(C(=O)Nc2ccc(C(=O)OCc3cc(=O)n4c5c(sc4n3)CCCC5)cc2)cc1	21%[46.1 µM]	-15%	/	/	/	-2.1%	-7%	/
CCOc1ccccc1NC(=O)[C@@H](NC(=O)c1ccccc1F)C(C)C	5%[46.1 µM]	14%	?	-11%	24%	/	/	1%
COc1ccccc1NC(=O)CSc1oc(-c2ccco2)nc1S(=O)(=O)c1ccc(C)cc1	-2%[46.1 µM]	-23%	-7%[46.1 µM]	/	/	-5.5%	1%	/
CCc1ccccc1N(CC)C(=O)c1cn(CC)c(=O)c2cc(OC)c(OC)cc12	9%	-4%	-11%[46.1 µM]	-5%	9%	-0.1%	23%	0%
CCn1c(O)c2ccc(C(=O)N=NC(=O)c3ccccc3)cc2c1O	-2%	35%[activator]	2%	0%	3%	/	/	6%
C[C@]12C=CC(=O)C=C1CC[C@@H]1C2[C@@H](O)C[C@@]2(C)C1CC[C@]2(O)C(=O)COC(=O)CCC(=O)O (stereo not given in full)	?	8%	1%	0%	-21%	/	/	7%
Cc1cc(N2C(=O)C(O)=C(C(=O)c3cccs3)C2c2ccc(F)cc2)no1 (stereo not given)	-2%	6%	-7%	4%	-13%	/	/	0%
COCC(C)NC(=O)CSc1nc2nn(-c3ccccc3)c(=O)c-2c2n1CCCCC2 (stereo not given)	-1%	-12%	-10%	/	5%	/	/	1%
O=C(NCc1ccc2c(c1)OCO2)c1cccs1	4%	16%	19%	-9%	-9%	-2.9%	7%	2%
COc1ccc(-c2nnn(CC(=O)N(CCCN3CCOCC3)C(C(=O)NC3CCCC3)c3ccco3)n2)cc1 (stereo not given)	-22%[46.1 µM]	2%	?	1%	-8%	/	/	0%
CC(NC(=O)CSc1cccc(C(F)(F)F)c1)c1ccccc1 (stereo not given)	6%	14%	16%	-9%	-3%	-6.4%	-1%	-6%
CCC[C@H](N[C@@H](CCC)[C@H](O)c1ccccc1)[C@H](O)c1ccccc1	-28%[46.1 µM]	-7%	8.9µM*	/	3%	/	/	/
Cc1cccc(N(Cc2ccccc2)C(=O)c2ccc(CS(C)(=O)=O)cc2)c1	-8%	-6%	-5%	-4%	7%	/	/	-2%
CCOC(=O)c1sc(NC(=O)CSc2nnc(Cc3ccccc3)o2)c(C(=O)OCC)c1C	-19%	-13%	?	24%	3%	1.6%	-5%	2%
Cn1c2ccccc2c2nnc(SCC(=O)Nc3cccc(C(=O)O)c3)nc21	/	?	/	5%	-2%	/	/	-1%
Cn1cccc/c1=N\c1cccc[n+]1C	/	-21%	/	-3%	-7%	/	/	0%
Cc1ccc(S(=O)(=O)NCC(=O)N(CC(=O)NCc2ccccc2)CC2CCCO2)cc1 (stereo not given)	-1%	-16%	38%&38%	-5%	-5%	0.4%	1%	0%

Continuation.
SMILES	LASV entry inh	2A StopGo	Marburg entry inh	NS1 inh	RE007 growth inh	Cruzain inh Det	Cruzain noTriton	SARS PLpro yeast
CCCCNC(=O)n1c(=O)oc2ccc(Cl)cc21	9%	-14%	0%[46.1 µM]	-19%	-10%	-0.2%	-6%	-2%
COCc1nnc(NC(=O)CCc2ccc(OC)cc2)s1	-6%	-3%	?	9%	-20%	/	/	21%
O=C(O)c1ccccc1Cc1ccc2c(c1)CCCC2	20%[46.1 µM]	4%	13%[46.1 µM]	/	27%	/	/	/
CCOC(=O)C1C(=O)NC(c2ccccc2)=NC1c1ccc(OC)cc1 (stereo not given)	1%[46.1 µM]	6%	-3%[46.1 µM]	/	-17%	/	/	1%
COc1cccc(CNC(=O)c2ccc(NC(=O)N3CCCCc4ccccc43)cc2)c1	19%[46.1 µM]	-7%	/	/	/	-0.2%	-5%	/
COc1cc(/C=C/C(=O)O)ccc1OCc1cnc(Cl)s1	2%	12%	-4%[46.1 µM]	/	9%	/	/	0%
